Source: PubChem (ICCB-Longwood Screening Facility, Harvard Medical School)
GIV-Gai inh: inhibitors of GIV GBA-motif binding to rat Galpha-i3 | P08753 | Galpha-i3/FITC-GIV peptide fluorescence polarization, 90 min; active compounds read low; scaled: aluminum fluoride 0%, vehicle 100% | percent of control (FP), % (no concentration beside the values) | 210,000 tested, 0.42% active | AID 1224905;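 active = replicate mean at 85% of control or lower, very high polarization wells dropped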;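 note: wells of about 15 µL received 100 nL stock; the first replicate is given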
Target sequence (P08753 whole entry, looked up): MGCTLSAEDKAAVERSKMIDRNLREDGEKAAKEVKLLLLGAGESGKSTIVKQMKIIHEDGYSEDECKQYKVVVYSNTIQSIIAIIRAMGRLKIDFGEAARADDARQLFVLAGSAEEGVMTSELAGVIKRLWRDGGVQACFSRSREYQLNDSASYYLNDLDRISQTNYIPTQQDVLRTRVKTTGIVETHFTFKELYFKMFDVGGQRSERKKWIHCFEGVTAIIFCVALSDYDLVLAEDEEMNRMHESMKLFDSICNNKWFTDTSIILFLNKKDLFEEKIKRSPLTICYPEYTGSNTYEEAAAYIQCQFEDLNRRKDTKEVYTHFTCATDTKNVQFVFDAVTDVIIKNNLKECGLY
HCMV UL50-53 inh: disrupts HCMV UL50-UL53 complex binding. HTRF UL50-UL53 interaction, normalized percent inhibition. inhibition, % (no concentration beside the values). 190,000 tested, 0.15% active. AID 1918969;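 active = both replicates at 50% or more, plus weaker picks with an unusually low signal ratio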;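 note: stock transfer was 100 nL into about 20 µL; 0% = negative control wells and 100% = wells with untagged competitor protein; inactives centre near -12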
Sa growth inh: inhibitors of Staphylococcus aureus growth at 42 °C; S. aureus RN4220 growth, OD600, 20 h; active compounds read low; relative growth, % (concentration not given with the values); 170,000 tested, 0.53% active; AID 720641;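 active = growth at 42 °C up to 50% and 20 or more points under that at 30 °C, or under 10% at both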;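 note: 300 nL library stock went into each well; scaled to the means of positive and negative controls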
Sa growth inh second temp: recorded beside Sa growth inh, whose call it bears; relative growth, %; measured here: growth at 30 °C;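 optical density after 20 h as mean of two plates; 100% = untreated growth and lower means inhibition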
The depositor's hits bear a star; x = no result given.

SMILES	GIV-Gai inh	HCMV UL50-53 inh	Sa growth inh	Sa growth inh second temp
O=C(CNS(=O)(=O)c1ccccc1)N1CCCC1	103	-4	118	75
Cc1cc(C)c(S(=O)(=O)NCCc2cc3cc(C)c(C)cc3[nH]c2=O)c(C)c1	106	-6	96	84
FC(F)(F)c1ccc(Cl)c(Nc2ncnc(-n3cccc3)n2)c1	99	-27	87	89
CCOC(=O)CNC1=NCc2ccccc21	x	-9	132	92
O=S(=O)(NCc1ccc(F)cc1)c1ccc(N2CCCCS2(=O)=O)cc1	100	x	108	82
CCCCCn1c(=O)[nH]c2cc(C(=O)N3CCN(c4cccc(C)c4)C(C)C3)ccc2c1=O (configuration not stated)	105	-17	100	92
Cc1ccc(NS(=O)(=O)c2cn(C)c(C)n2)cc1C	99	-13	x	x
CCN(CC)c1ccc(NC(=O)CN2CCN(c3ccccc3OC)CC2)cc1	108	x	95	87
CCC(Sc1nc2c(sc3ccccc32)c(=O)n1CCc1ccccc1)C(=O)N(CC)CC (configuration not stated)	103	x	95	94
CN(C)C(=O)c1nn(-c2ccc(Cl)cc2)c(=O)c2ccccc12	113	-2	99	95
Cc1ccc(-n2c(COc3cccc(C)c3)n[nH]c2=S)cc1	103	-16	86	74
O=C(COCC(=O)Nc1ccc(Cl)cc1F)Nc1ccc(Cl)cc1F	x	-6	101	99
O=C(NCC(O)c1ccccc1)Nc1ccc(F)cc1 (configuration not stated)	101	-16	89	84
Cc1ccc(C(=O)Sc2nnc3ccccn23)cc1	x	-24	106	87
Cc1cc(N2C(=O)CN(S(C)(=O)=O)CC2(C)C(=O)NC2CCCC2)ccc1Br (configuration not stated)	106	-4	x	x
CCCOC(=O)C1=C(C)N(C)C(=O)NC1c1cc2c(cc1Br)OCO2 (configuration not stated)	106	-11	x	x
Cc1oc(-c2ccccc2F)nc1CS(=O)(=O)CC(=O)NCCc1ccc(Cl)cc1	104	22	105	92
CC1=C(C(=O)Nc2ccccn2)C(c2ccsc2)C2=C(CC(c3ccco3)CC2=O)N1 (configuration not stated)	104	-37	88	88
CCOc1ccc(CCNC(=O)c2cnc3sc(N(CC)CC)nn3c2=O)cc1OCC	108	x	108	98
COc1ccc(CNC(=O)C2=C(c3ccccc3)c3cc(Cl)ccc3S(=O)(=O)N2C)cc1	102	-18	x	x

Whole records from above. Order of screens: GIV-Gai inh | HCMV UL50-53 inh | Sa growth inh | Sa growth inh second temp
Listed for O=C(CNS(=O)(=O)c1ccccc1)N1CCCC1 = 103 | -4 | 118 | 75
Listed for Cc1cc(C)c(S(=O)(=O)NCCc2cc3cc(C)c(C)cc3[nH]c2=O)c(C)c1 = 106 | -6 | 96 | 84
Listed for CCOc1ccc(CCNC(=O)c2cnc3sc(N(CC)CC)nn3c2=O)cc1OCC = 108 | x | 108 | 98
Listed for CC1=C(C(=O)Nc2ccccn2)C(c2ccsc2)C2=C(CC(c3ccco3)CC2=O)N1 (configuration not stated) = 104 | -37 | 88 | 88
Listed for CCCCCn1c(=O)[nH]c2cc(C(=O)N3CCN(c4cccc(C)c4)C(C)C3)ccc2c1=O (configuration not stated) = 105 | -17 | 100 | 92

Arranged by length of the SMILES (low to high): 3 of the compounds above.
SMILES	GIV-Gai inh	HCMV UL50-53 inh	Sa growth inh	Sa growth inh second temp
Cc1ccc(-n2c(COc3cccc(C)c3)n[nH]c2=S)cc1	103	-16	86	74
O=C(COCC(=O)Nc1ccc(Cl)cc1F)Nc1ccc(Cl)cc1F	x	-6	101	99
Cc1cc(C)c(S(=O)(=O)NCCc2cc3cc(C)c(C)cc3[nH]c2=O)c(C)c1	106	-6	96	84

Further results:
SMILES	GIV-Gai inh	HCMV UL50-53 inh	Sa growth inh	Sa growth inh second temp
CCOC(=O)Cc1nc(-c2ccncc2)n[nH]1	104	-14	116	91
COc1ccc(C2=C(C)C(=NCCCN3CCN(c4cc(Cl)ccc4C)CC3)NS2(=O)=O)cc1	100	-8	122	67
CC1(C)CC(C(N)=O)C(C)(C)N1 (configuration not stated)	102	-18	92	81
COc1ccc(N=Cc2cn(-c3ccccc3)nc2-c2cccs2)cc1	x	20	97	100
O=S(=O)(c1ccccc1)n1ccc(-c2cnc3cc(Cl)c(Cl)cc3n2)c1	101	-19	101	90
CC(C)OC(=O)CC12CN3CC(CC(=O)OC(C)C)(CN(C1)C(=O)c1ccccc1C3=O)C2=O	98	-7	114	86
CC(C)CN(CCCNC(=O)CN1C(=O)COc2ccc(S(=O)(=O)N3CCCCCC3)cc21)CC(C)C	100	7	94	89
CCOC(=O)c1sc2nc(NC(=O)C3CC3)sc2c1C	98	-5	100	97
O=C(NC1CCN(Cc2ccccc2)CC1)c1ccc(Cn2c(=O)c3ccccc3n(Cc3ccc(Cl)cc3)c2=O)cc1	102	6	97	94
CC(=O)N1N=C(c2ccccc2)OC1c1cccnc1 (configuration not stated)	103	x	106	88

Some values from above:
CCOC(=O)Cc1nc(-c2ccncc2)n[nH]1 | Sa growth inh = 116
CC(=O)N1N=C(c2ccccc2)OC1c1cccnc1 (configuration not stated) | Sa growth inh second temp = 88
CC(C)OC(=O)CC12CN3CC(CC(=O)OC(C)C)(CN(C1)C(=O)c1ccccc1C3=O)C2=O | Sa growth inh = 114
CC1(C)CC(C(N)=O)C(C)(C)N1 (configuration not stated) | Sa growth inh = 92

Carrying on.
SMILES	GIV-Gai inh	HCMV UL50-53 inh	Sa growth inh	Sa growth inh second temp
Cn1cnnc1SC(C(=O)Nc1cc(Cl)cc(Cl)c1)c1ccccc1 (configuration not stated)	x	-10	116	88
COc1ccc2c(c1)-c1nc(NC(=O)c3ccccc3Br)sc1CC2	92	x	81	99
Cc1ccc(C2CCCN2S(=O)(=O)c2cnn(C(F)F)c2C)cc1 (configuration not stated)	104	-36	x	x
CC(OC(=O)c1cc2sccc2n1C)C(=O)NCC1CCCO1 (configuration not stated)	98	-4	90	84
O=C(Nc1ccc(Cl)cc1)c1cnc(N2CCCC2)nc1	105	-26	113	87
CC(=O)c1cccc(NC(=O)N2CCC(CN3CCCCC3)CC2)c1	103	x	113	91
CC1=C(C(=O)Nc2ccc(C)cc2C)C(c2ccc(F)c(Br)c2)n2ncc(C(=O)Nc3ccccc3)c2N1 (configuration not stated)	104	-6	x	x
CCOC(=O)c1c(CN2CCOCC2)n(-c2ccccc2)c2ccc(O)cc12	x	1	79	52
COc1cc(C(=O)Nc2nnc(CC(C)(C)C)s2)cc(OC)c1OC	106	8	107	94
O=C(COc1ccc(Br)cc1Br)Nc1ccc(S(=O)(=O)Nc2ncccn2)cc1	106	x	99	82
O=C1CCCCC1OC(=O)C12CC3CC(CC(C3)C1)C2 (configuration not stated)	x	-16	104	90
O=C(Oc1ccc(Cl)cc1)c1cccs1	100	-24	92	79
COc1ccc2c(c1)CC(NS(C)(=O)=O)CO2 (configuration not stated)	103	12	x	x
CN1CCC(N(C)C(=O)/C=C/c2cn(-c3ccccc3)nc2-c2cccnc2)CC1	x	-38	88	93
NC(=O)c1ccc(-c2ccnc(-c3ccc(Br)s3)n2)cc1	108	-1	92	92
CCOc1ccc(-c2noc(CCCC(N)=O)n2)cc1OC	102	-3	88	88
O=C(CSc1nnc(-c2ccccc2)o1)Oc1ccc(Br)cc1	104	-4	104	106
CN1CCc2c(Nc3ccc(Cl)cc3)nc3[nH]n(-c4ccccc4)c(=O)c3c21	x	-40	87	94
Cc1cc(O)c(C(c2ccc(F)cc2)N2CCCCC2)c(=O)n1Cc1ccco1 (configuration not stated)	102	x	110	91
CCOc1ccc(C(=O)CC2OC(=O)c3ccccc32)cc1 (configuration not stated)	109	4	100	108
O=C(NCC1CCCO1)C1CC(=O)N(CCc2ccccc2)C1 (configuration not stated)	97	1	90	85
C=CCn1c(=O)c2ccc(C(=O)NC(C)CC)cc2n2c(=O)n(CC(=O)NC(C)C)nc12 (configuration not stated)	105	1	x	x
Cc1cc(NCCN(C)C)c2ccccc2n1	109	-7	92	81
COc1ccc(Cc2nnc3sc(Cc4ccc5c(c4)OCCO5)nn23)cc1	108	-20	x	x
CN(C(=O)CSc1nc(N)nn1-c1ccccc1)c1ccccc1	98	7	90	86
CCc1ccc(C(=O)CC2(O)C(=O)N(CCc3ccccc3)c3ccc(Cl)cc32)cc1 (configuration not stated)	100	-17	98	74
Cc1nc2c(-c3ccccc3)c(C)nn2c(C)c1CC(=O)NN1CCOCC1	107	-13	98	90
O=C(NC(=S)n1nnc2ccccc21)c1ccccc1	109	-2	x	x
Cc1ccc(C2=Nc3ccccc3N(CC(=O)NC(C)CCc3ccccc3)C(=O)C2)c(C)c1 (configuration not stated)	100	-2	x	x
Cc1ccccc1-n1c(SCC(=O)Nc2ccc(Cl)cc2Cl)nc(O)cc1=O	117	-20	80	92
C=C(C)Cn1c(=S)n(Cc2ccccc2)c2ccccc21	x	8	105	96
O=S(=O)(Nc1nc2ccccc2nc1NC1CCCC1)c1ccc(Cl)s1	x	38	88	90
Cc1ccc(CSc2nnc(-c3ccccc3Cl)o2)cc1	97	-21	x	x
Cc1ccc2nc(-c3ccc(NC(=O)CCCC(=O)O)cc3)sc2c1	94	-38	104	72
CCCCOc1ccc(OCCNC(=O)C2CCC(=O)N2)cc1 (configuration not stated)	99	-43	106	83
Cn1nc(-c2ccc(S(=O)(=O)n3ccnc3)s2)cc1C(F)(F)F	105	-15	98	85
Brc1ccc(-c2nnc3n2-c2ccccc2CC3)cc1	x	5	94	99
CC1=C(C(=O)Nc2ccccc2Br)C2(CCC(C)CC2)OC1=O (configuration not stated)	106	-26	95	94
O=S(=O)(c1cc(F)ccc1F)N1CCCC1c1ccc(F)cc1 (configuration not stated)	104	14	x	x
O=C(CC1OC(=O)c2ccccc21)Nc1cccc2cccnc12 (configuration not stated)	x	-40	113	79
COc1ccc(-c2noc(NCCc3ccc(OC)c(OC)c3)n2)cc1	103	-21	x	x
CN(Cc1ccco1)C(=O)COc1cccc2c1OC(C)(C)C2	x	-26	76	88
C=CCn1c(CN(c2ccc(F)cc2)S(C)(=O)=O)nnc1SCC(=O)c1cn(C)c2ccccc12	101	-19	x	x
C=CCn1c(Cc2ccc(OC)cc2)nnc1SC(C)C(=O)Nc1ccc2c(c1)OCO2 (configuration not stated)	100	-10	110	89
N#Cc1c(N)nc(SCc2ccccc2)c(C#N)c1-c1cccs1	100	-14	87	91
CN1CCN(C(=O)C2CCN(S(=O)(=O)c3cc4c(cc3Cl)NC(=O)CO4)CC2)CC1	103	9	x	x
CCC(C(=O)Nc1cc(OC)ccc1OC)n1c(C)c2cnn(-c3ccccc3)c(=O)c2c1C (configuration not stated)	106	1	96	97
Cn1ccc2cc(S(=O)(=O)N3CCCC(C(=O)NCc4ccccc4)C3)ccc21 (configuration not stated)	104	x	79	88
CCNC(=O)CN1c2ccc(CC)cc2-c2ccccc2S1(=O)=O	100	-9	x	x
Cc1ccc2nc(-c3ccccn3)cc(C(=O)O)c2c1	98	-40	95	93

(continued)
SMILES	GIV-Gai inh	HCMV UL50-53 inh	Sa growth inh	Sa growth inh second temp
CCOC(=O)c1sc(CN2CCN(c3cccc(Cl)c3)CC2)nc1C	99	0	112	111
Nc1nc(CSc2nnc(-c3cccc(Br)c3)n2C2CCCCC2)cs1	105	4	108	103
COc1ccc(-n2c(=O)/c(=C\c3ccccn3)s/c2=C(/C#N)C(=O)NC2CC2)cc1	x	-30	91	89
CCOc1ccc(NC(=O)C2CC(=O)NC(N3CCCCC3)=N2)cc1 (configuration not stated)	104	-11	113	67
Cc1ccc2c(c1)c1c3n2CCN(C2CCO2)C3CCC1 (configuration not stated)	x	6	103	110
Nc1ccccc1OC(=O)C[n+]1ccccc1	105	-26	88	83
CCOc1ccc(CCNC(=O)c2ccc3c(c2)c(C)c(C)n3C)cc1	105	x	95	96
CC1CCN(C(=O)Cn2c(=O)c3ccccc3n3c(=S)sc(-c4ccccc4)c23)CC1	243	-25	x	x
CCOc1ccccc1C(=O)NCC(=O)N(C)Cc1cccnc1	x	-8	88	93
CSc1nn2c(C(F)(F)F)cc(C(F)(F)F)nc2c1C(=O)O	102	-18	104	96

Compounds from the list above containing a furan ring, fused or not (three):
SMILES	GIV-Gai inh	HCMV UL50-53 inh	Sa growth inh	Sa growth inh second temp
CC1=C(C(=O)Nc2ccccn2)C(c2ccsc2)C2=C(CC(c3ccco3)CC2=O)N1 (configuration not stated)	104	-37	88	88
Cc1cc(O)c(C(c2ccc(F)cc2)N2CCCCC2)c(=O)n1Cc1ccco1 (configuration not stated)	102	x	110	91
CN(Cc1ccco1)C(=O)COc1cccc2c1OC(C)(C)C2	x	-26	76	88

Other records follow:
SMILES	GIV-Gai inh	HCMV UL50-53 inh	Sa growth inh	Sa growth inh second temp
CCc1ccccc1N1CC(c2nnc(NC(=O)c3ccccc3)s2)CC1=O (configuration not stated)	108	-18	x	x
CC1(C)CC(CCC(=O)Nc2ccc(S(=O)(=O)Nc3nccs3)cc2)C(=O)O1 (configuration not stated)	102	-9	75	82
CCc1ccccc1NC(=O)C1CCN(C(=O)N2CC(C)Oc3ccc(Cl)cc32)CC1 (configuration not stated)	101	-14	125	95
O=C(COC(=O)C12CC3CC(CC(C3)C1)C2)c1ccc(F)cc1	x	-20	97	93
CCS(=O)(=O)N1CCN(C2CCCCCCC2)CC1	105	-4	105	77
N#Cc1ccc2ccn(CC(N)=O)c2c1	107	-3	104	90
O=C(CSc1n[nH]c(=O)n1Cc1ccco1)c1ccc2c(c1)OCCO2	103	-1	100	95
CCN1CCN(CCCNC(=O)c2cnn(-c3ccccc3Cl)c2C2CCN(C(=O)OC(C)(C)C)CC2)CC1	111	x	111	101
Cc1ccc2nc(C(O)C(O)c3nc4ccc(C)cc4[nH]3)[nH]c2c1 (configuration not stated)	110	x	110	99
